Screening data (PubChem)
USP2a inh = qHTS Assay for Inhibitors of Ubiquitin-specific Protease USP2a Using CHOP2 as the Reporter; USP2 core, Ub-CHOP2 coupled fluorogenic reporter, 485/531; Ubiquitin carboxyl-terminal hydrolase 2 (Homo sapiens), O75604; Potency, µM (highest dose often 38.3 µM), inactives show at the highest dose activity change, negative = inhibition, actives largely listed as inhibitors; AID 463254, 2010; 330,000 tested, 0.01% active;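 note: potency is the fitted concentration of half-maximal effect; plate controls were DMSO wells for no effect and full inhibition by NEM control for full effect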
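Cell-free coupled assay: 10nM USP2 core preincubated 30min RT with compound in Tris-HCl pH 8.0/CaCl2/CHAPS buffer, then 25nM Ub-CHOP2 and 25nM reporter substrate; fluorescence (Ex 485/Em 531) read after 60min RT, normalized to NEM inhibition, concentration-response curves fitted.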
Giardia kill = Small Molecules that selectively kill Giardia lamblia: qHTS; Giardia lamblia trophozoite viability; activity change, % at 7.66 µM, hits read low; 340,000 tested, 0.15% active; in the data active = activity change below about -80%;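 note: parasites exposed to compound for two days anaerobically before the ATP read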
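Media and compound were dispensed first, then trophozoites at 100 cells/well; plates sat 48 hrs at 37 deg C without oxygen before ATP luminescence reagent was added and read after 15-30 min at room temperature.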
Eya2 inh = qHTS Assay for Inhibitors of the Phosphatase Activity of Eya2. recombinant Eya2, OMFP fluorescence dephosphorylation (OMFP is methylfluorescein phosphate). 330,000 tested, 0.006% active. Potency, µM (highest dose often 76.9 µM), without a hit: top-dose activity, negative = inhibition, usual class: inhibitors; note: potency is the fitted concentration of half-maximal effect
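Eya2 protein (added as 0.2 uM solution) was preincubated with compound for 10 min at ambient temperature in 50 mM HEPES pH 7.5, 50 mM NaCl, 5 uM MgCl2, 0.05% BSA, 1 mM DTT. OMFP (added at 50 uM) then reacted 10 min; fluorescence read at 485/525 nm.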
GALK inh = qHTS Assay for Inhibitors of Human Galactokinase (GALK) | P51570 | Purified GALK, Kinase-Glo residual ATP luminescence | Potency, µM (top dose mostly 57.5 µM), for the others: top-dose activity change, negative = inhibition, usual class: inhibitors | 270,000 tested, 0.007% active; note: potency is the fitted concentration of half-maximal effect
Target sequence (P51570 whole entry, looked up): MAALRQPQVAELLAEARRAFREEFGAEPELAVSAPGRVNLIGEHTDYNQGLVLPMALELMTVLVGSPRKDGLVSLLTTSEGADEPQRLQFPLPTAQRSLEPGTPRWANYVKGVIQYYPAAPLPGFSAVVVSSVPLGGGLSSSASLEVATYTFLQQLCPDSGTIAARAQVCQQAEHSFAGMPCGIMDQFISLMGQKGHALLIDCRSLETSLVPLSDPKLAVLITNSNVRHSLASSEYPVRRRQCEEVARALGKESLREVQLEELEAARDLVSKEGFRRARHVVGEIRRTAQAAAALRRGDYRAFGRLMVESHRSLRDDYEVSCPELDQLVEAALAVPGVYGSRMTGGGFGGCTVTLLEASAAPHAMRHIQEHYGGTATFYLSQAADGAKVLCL
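Kinase-Glo Plus luminescence measured ATP left after a 1 h room-temperature reaction. The reaction used 5 nM GALK, 100 uM galactose and 35 uM ATP at pH 8.0 (20 mM HEPES, 5 mM MgCl2, 60 mM NaCl, 1 mM DTT, 0.01% BSA).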
Coupling enz = qHTS Assay for Inhibitors of Fructose-1,6-bisphosphate Aldolase from Giardia Lamblia: Coupling assay counterscreen; coupling enzyme system counterscreen, AmpLite Red fluorescence; activity change, negative = inhibition, % at 58.2 µM, hits read low; 290,000 tested, 0.67% active; AID 2472, 2010; in the data active = activity change below about -30%
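First, compound is pin-transferred into glyceraldehyde-3-phosphate coupling-enzyme reagent at 57.5 uM final and held 10 min at RT. Next, substrate, coupling system and AmpLite Red are added. After 20 min RT, fluorescence (525/598 nm) is read.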
uPA generation = qHTS for Inhibitors of Cell Surface uPA Generation; cell surface uPA generation assay, qHTS; Potency, µM (top dose mostly 38.3 µM), inactives show top-dose activity change, negative = inhibition, actives largely listed as inhibitors; 330,000 tested, 0.31% active; active = well fitted inhibition curve with a large enough effect; tested in mouse RAW 264.7 cells; note: potency is the fitted concentration of half-maximal effect; nearly all actives have a fitted effect of over 55% in size
* marks the source's active call; other numbers are inactive results; nt = no result given; & = joins results of further samples. Unless noted, calls come from the whole dose curve; as a rule, active = well fitted inhibition curve with a large enough effect; inconclusive = small, poorly fitted or top-dose-only effect, or effect the other way; inactive = flat fitted curve, though single readings scatter. Unless noted, % is set by controls: 0 for no effect and ±100 for the full control effect. Some of the compounds tested; rates above refer to the full screens.

Letters – A = USP2a inh; B = Giardia kill; C = Eya2 inh; D = GALK inh; E = Coupling enz; F = uPA generation
canonical_smiles: Oc1ccc(-c2nnc(SCc3ccccc3)o2)cc1
  A = -1%	B = -9	C = -4%	D = -2%	E = 5	F = 7%
canonical_smiles: CC(COc1ccccc1)N(CCCl)Cc1ccccc1 (centres undefined)
  A = -1%	B = 22	C = 4%&-1%	D = -2%	E = 0&3	F = -3%
canonical_smiles: CN1[C@@H]2CCC[C@H]1CC(NC(=O)c1nn(C)c3ccccc13)C2 (some centres undefined)
  A = 0%	B = -19	C = 11%	D = nt	E = nt	F = -7%
canonical_smiles: O=C(N/N=C/c1c[nH]c2ccc(Br)cc12)c1ccc2c(c1)OCO2
  A = 1%	B = -4	C = -3%	D = -2%	E = -7	F = -9%
canonical_smiles: NCCS(=O)(=O)O
  A = nt	B = 2	C = -3%	D = nt	E = 0	F = 9%
canonical_smiles: NS(=O)(=O)c1ccc(NC(=O)Nc2ccccc2)cc1
  A = -3%	B = -20	C = -17%	D = 5%	E = 5	F = 1%
canonical_smiles: N#Cc1c(-c2cccc(Br)c2)cc(-c2ccco2)[nH]c1=O
  A = 9%	B = 12	C = 0%	D = -4%	E = 6	F = -3%
canonical_smiles: NS(=O)(=O)c1ccc(NC(=O)Nc2ccc(C(F)(F)F)cc2)cc1
  A = 4%	B = -5	C = -4%	D = 0%	E = -2	F = -5%
canonical_smiles: O=C(O)C[C@@H](O)C(=O)O
  A = 8%	B = 15	C = -20%	D = 5%	E = -1	F = 10%
canonical_smiles: Cc1nc(-c2ccccc2)c(-c2ccccc2)[nH]1
  A = -1%	B = 6	C = 4%	D = -2%	E = 2	F = -9%
canonical_smiles: Cc1nc2ccc(S(=O)(=O)NCC(=O)NCCN3CCCCCC3)cc2s1
  A = 3%	B = 19	C = 13%	D = 2%	E = -1	F = 2%
canonical_smiles: O=C(O)/C=C\C(=O)O
  A = 2%	B = -24	C = -42%	D = nt	E = nt	F = -11%

2 of these compounds in a different format.
Every second line gives: USP2a inh | Giardia kill | Eya2 inh | GALK inh | Coupling enz | uPA generation
- CN1[C@@H]2CCC[C@H]1CC(NC(=O)c1nn(C)c3ccccc13)C2 (some centres undefined)
    0% | -19 | 11% | nt | nt | -7%
- O=C(N/N=C/c1c[nH]c2ccc(Br)cc12)c1ccc2c(c1)OCO2
    1% | -4 | -3% | -2% | -7 | -9%

A second format for part of the listing above.
> Cc1nc2ccc(S(=O)(=O)NCC(=O)NCCN3CCCCCC3)cc2s1
  USP2a inh = 3%
  Giardia kill = 19
  Eya2 inh = 13%
  GALK inh = 2%
  Coupling enz = -1
  uPA generation = 2%
> O=C(O)/C=C\C(=O)O
  USP2a inh = 2%
  Giardia kill = -24
  Eya2 inh = -42%
  GALK inh = nt
  Coupling enz = nt
  uPA generation = -11%

Six entries from above, arranged by their value in Eya2 inh, falling:
structure	Eya2 inh
Cc1nc(-c2ccccc2)c(-c2ccccc2)[nH]1	4%
NCCS(=O)(=O)O	-3%
NS(=O)(=O)c1ccc(NC(=O)Nc2ccc(C(F)(F)F)cc2)cc1	-4%
NS(=O)(=O)c1ccc(NC(=O)Nc2ccccc2)cc1	-17%
O=C(O)C[C@@H](O)C(=O)O	-20%
O=C(O)/C=C\C(=O)O	-42%
